Bioassay records deposited in PubChem BioAssay by Southern Research Institute.
Mtb H37Rv = Mycobacterium tuberculosis H37Rv growth inhibition, putative kinase inhibitor library, confirmatory dose response (AID 2842). M. tuberculosis H37Rv growth inhibition; higher % means a stronger effect; some inactives read as strong as hits. inhibition, % at 10 µg/mL; hits with a dose series show IC90 in µg/mL. actives 5.2% (n = 24,000);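 active = confirmed in a dose series; inconclusive = mostly over 85% at the one dose but not retested; inactive = below 85% or not confirmed; about a fifth of its hits are not listed in these tables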;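 also: bacteria incubated one week before Alamar blue readout; 0% = bacteria only wells and 100% = bacteria with high antibiotic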
The depositor's hits bear a star; ? = inconclusive.

SMILES	Mtb H37Rv
O=C(Cc1cccc2ccccc12)Nc1nnc(-c2ccccc2)s1	7%
CC(C)S(=O)(=O)Nc1ccc2c(c1)CCC(=O)N2C	-3%
O=c1oc2ccccc2n1CCCOc1ccccc1	51%
CC(Cl)C(=O)Nc1nnc(-c2ccc(Cl)cc2Cl)s1 (stereo not drawn)	-3%
O=C(CSc1ncnc2c1oc1ccccc12)NCc1ccccc1	12%
O=C(CSc1nc2c(oc3ccccc32)c(=O)n1Cc1ccc(F)cc1)Nc1cccc(F)c1	-11%
O=C(c1ccccc1)c1cc(Cl)ccc1NC(=O)c1cnc2n(c1=O)CCS2	5%
O=C(NCc1n[nH]c(=O)c2ccccc12)Nc1ccc(Cl)cc1	-4%
O=C(CSc1ncc(S(=O)(=O)c2ccc(Cl)cc2)c(=O)[nH]1)Nc1cc(F)ccc1F	-10%
Cc1nnc(SCCn2c(N3CC(C)CC(C)C3)nc3c2c(=O)n(C)c(=O)n3C)s1 (stereo not drawn)	-3%
Cn1ncc2c(NCCO)nc(Nc3cccc(F)c3)nc21	10%
CC(=O)N1CCN(C2=NC(=O)/C(=C\c3ccc(OCc4ccc([N+](=O)[O-])cc4)cc3)S2)CC1	-10%
COc1ccc(C(=O)N(CCCn2ccnc2)c2nc3ccc(F)cc3s2)cc1OC	38%
Cc1cccc(COc2cccc3c2CCNC3=O)c1	-3%
O=C(NNc1ncnc2c1cnn2-c1ccc(Cl)cc1)c1ccccc1Cl	7%
CCOC(=O)N1CCc2c(sc(NC(=O)c3ccc([N+](=O)[O-])s3)c2C#N)C1	54%
CC(=O)c1c(C)oc2c1cc(NS(=O)(=O)c1ccc3c(c1)n(C)c(=O)n3C)c1ccccc12	-5%
Cn1c(=O)c2c(SCc3cccc4ccccc34)nc(-c3cccs3)nc2n(C)c1=O	-7%
COc1cc(-c2nnc(NC(=O)C3=COCCO3)o2)cc(OC)c1OC	-7%
O=C(N=Nc1c(O)[nH]c2ccccc12)c1cc(-c2ccccc2Cl)n[nH]1	-8%
Cc1nc2sc(C(c3ccccc3Cl)N3CCC(C(N)=O)CC3)c(O)n2n1 (stereo not drawn)	3%
Cc1ccc(NC(=O)Nc2ccc(N3CCOCC3)cc2)cc1	-8%
COC(=O)Cn1c(=O)c2c(nc3n2CC(C)CN3c2ccc(C)c(C)c2)n(C)c1=O (stereo not drawn)	0%
CCOc1ccc(NC(=O)c2c[nH]c(=O)n(-c3ccc(Cl)cc3)c2=O)cc1	10%
O=c1c2ccc(O)cc2oc2cc(O)ccc12	78%
CCC(C)Nc1nc2c(C)cccn2c(=O)c1C=Nc1ccc(OC)cc1 (stereo not drawn)	?
COc1ccccc1Cn1c(=S)[nH]c2cc(C(=O)NCc3ccccn3)ccc2c1=O	5%
Cc1cc(=O)[nH]c2nnc(SCc3cccnc3)n12	-3%
O=C(CSc1nc2[nH]ncc2c(=O)[nH]1)NCc1ccccc1	-6%
CSc1ccc2nc(Nc3ccc(C)cc3)sc2c1	5%
O=C(CC1Sc2ccc(C(F)(F)F)cc2NC1=O)Nc1ccc(Cl)cc1[N+](=O)[O-] (stereo not drawn)	75%
COc1ccc(-c2nc3c(c(SCC(=O)N4CCCc5ccccc54)n2)Cc2ccccc2O3)cc1	-16%
CC(=O)Nc1ccc(N2C(=O)/C(=C3/C(=O)N(C)c4ccccc43)SC2=S)cc1	-14%
Cc1nc(SCC(=O)Nc2nc3ccccc3s2)c2c(=O)n(C)c(=O)n(C)c2n1	-4%
CCCCOc1ccc(C(=O)Nc2cc(C)c3c(=O)oc4ccccc4c3n2)cc1	4%
CCOc1ccc(C(=O)Nc2c(N)nc(SCc3c(F)cccc3Cl)[nH]c2=O)cc1	-18%
O=C(C1CCC(Cn2c(=O)[nH]c3ccsc3c2=O)CC1)N1CCN(c2ccc(F)cc2)CC1 (stereo not drawn)	40%
Cc1ccc(NC(=O)CSc2nc(N)c(NC(=O)c3ccc(F)cc3)c(=O)[nH]2)c(C)c1	7%
Cc1ccc(C(C)C)c(OCC(O)Cn2c(N3CCN(C)CC3)nc3c2c(=O)[nH]c(=O)n3C)c1 (stereo not drawn)	16%
C=CCNc1ncnc2c1cnn2-c1ccc(Cl)c(Cl)c1	6%
COc1ccc(C(=O)Nc2nc3c(C)cc(C)cc3s2)cc1OC	0%
Cc1cccc(-c2noc(-c3cc(C(C)C)[nH]n3)n2)c1	74%
Cc1ccc(C(=O)Nc2cc3c4c(c2)C(C)C(=O)N4CCC3)cc1C (stereo not drawn)	18%
CN(c1ccc(Cl)cc1)c1cn2c(nc(=O)n2C(C)(C)C)s1	7%
COc1ccc(C)cc1-n1c(C)c(C)n2c3c(=O)n(CCN4CCOCC4)c(=O)n(C)c3nc12	-4%

Given with bars between the fields: part of the list above
Compound | Mtb H37Rv
O=C(CSc1nc2[nH]ncc2c(=O)[nH]1)NCc1ccccc1 | -6%
CSc1ccc2nc(Nc3ccc(C)cc3)sc2c1 | 5%
O=C(CC1Sc2ccc(C(F)(F)F)cc2NC1=O)Nc1ccc(Cl)cc1[N+](=O)[O-] (stereo not drawn) | 75%
COc1ccc(-c2nc3c(c(SCC(=O)N4CCCc5ccccc54)n2)Cc2ccccc2O3)cc1 | -16%
CC(=O)Nc1ccc(N2C(=O)/C(=C3/C(=O)N(C)c4ccccc43)SC2=S)cc1 | -14%
Cc1nc(SCC(=O)Nc2nc3ccccc3s2)c2c(=O)n(C)c(=O)n(C)c2n1 | -4%
CCCCOc1ccc(C(=O)Nc2cc(C)c3c(=O)oc4ccccc4c3n2)cc1 | 4%
CCOc1ccc(C(=O)Nc2c(N)nc(SCc3c(F)cccc3Cl)[nH]c2=O)cc1 | -18%
O=C(C1CCC(Cn2c(=O)[nH]c3ccsc3c2=O)CC1)N1CCN(c2ccc(F)cc2)CC1 (stereo not drawn) | 40%
Cc1ccc(NC(=O)CSc2nc(N)c(NC(=O)c3ccc(F)cc3)c(=O)[nH]2)c(C)c1 | 7%
Cc1ccc(C(C)C)c(OCC(O)Cn2c(N3CCN(C)CC3)nc3c2c(=O)[nH]c(=O)n3C)c1 (stereo not drawn) | 16%
C=CCNc1ncnc2c1cnn2-c1ccc(Cl)c(Cl)c1 | 6%
COc1ccc(C(=O)Nc2nc3c(C)cc(C)cc3s2)cc1OC | 0%
Cc1cccc(-c2noc(-c3cc(C(C)C)[nH]n3)n2)c1 | 74%
Cc1ccc(C(=O)Nc2cc3c4c(c2)C(C)C(=O)N4CCC3)cc1C (stereo not drawn) | 18%
CN(c1ccc(Cl)cc1)c1cn2c(nc(=O)n2C(C)(C)C)s1 | 7%
COc1ccc(C)cc1-n1c(C)c(C)n2c3c(=O)n(CCN4CCOCC4)c(=O)n(C)c3nc12 | -4%

(listing goes on)
SMILES	Mtb H37Rv
CNC(=O)c1c(NC(=O)c2cccc(N3C(=O)CCC3=O)c2)sc2c1CCN(C(=O)OC)C2	-4%
CC1=C(C(=O)Nc2ccc(Cl)cc2)C(c2ccc(C)cc2)NC(=O)N1 (stereo not drawn)	22%
CC(C)N1CCc2c(sc(NC(=O)c3ccc(S(=O)(=O)N4CCOCC4)cc3)c2C#N)C1	-11%
COc1ccccc1-c1nnc(NC(C)=O)o1	0%
COc1ccc(-c2nc(SCC(=O)Nc3cccc(F)c3)c3c(=O)n(C)c(=O)n(C)c3n2)cc1	-6%
COc1ccc2nc(-c3ccc(F)c(NC(=O)c4ccc5ccccc5c4)c3)cn2n1	0%
Cc1ccc2nc(NC(=O)CSc3cc(C)[nH]c(=O)n3)sc2c1	-7%
CN(Cc1ccccc1)S(=O)(=O)c1ccc(C(=O)Nc2ccc(F)cc2)cc1	-8%
CN(C(=O)c1ccc(S(=O)(=O)N2CCOCC2)cc1)c1nnc(C23CC4CC(CC(C4)C2)C3)s1	12%
CC(C)(C)c1ccc(C(=O)Nc2nnc(-c3ccc(Br)cc3)o2)cc1	79%
Cn1c(=O)[nH]c(=O)c2c1nc(SCCN1CCOCC1)n2Cc1cccc(Br)c1	0%
COc1ccc2c(c1)c(=O)c(S(=O)(=O)c1ccc(F)cc1)cn2Cc1ccc(Cl)cc1	1%
CCCC(=O)Nc1nnc(-c2cccc([N+](=O)[O-])c2)s1	7%
COc1cccc2c(=O)n(CC(=O)Nc3cccc(C)c3)ccc12	7%
COc1ccccc1NC(=O)c1ccc(S(=O)(=O)N2CCCC2)cc1	-6%
c1ccc(N2CCN(c3nc4cc5c(cc4s3)OCCO5)CC2)cc1	-5%
COC(=O)c1ccccc1C(=O)Nc1c(C(=O)Nc2ccc(C)c(C)c2)oc2ccccc12	15%
O=C(Nc1sc2c(c1C(=O)NC1CCS(=O)(=O)C1)CCCC2)c1ccccc1Cl (stereo not drawn)	18%
O=c1oc2ccccc2cc1-c1nnc(Nc2ccc(F)cc2F)s1	-14%
Cc1ccc(C(=O)Nc2sc3c(c2C(N)=O)CCN(Cc2ccccc2)C3)cc1C	-6%
Cc1nc2c(ccc3nc(NC(=O)c4cc(Cl)cc(Cl)c4)sc32)s1	2%
COc1cccc(NC(=O)CSc2nnc(NC(=O)NC(C)(C)C)s2)c1	-17%
Cn1cc(C(=O)Nc2ccc(F)c(F)c2)c2nn(-c3ccccc3)c(=O)c-2c1	10%
O=C(Cc1ccccc1)Nc1nnc(-c2ccco2)o1	13%
CCN(CC)c1ncnc2c1cnn2-c1ccccc1	19%
Cc1nc2sc(C(c3cccs3)N3CCCC(C)C3)c(O)n2n1 (stereo not drawn)	2%
O=C(Nc1nc2c(s1)COc1ccccc1-2)c1ccc2ncsc2c1	23%
COc1cccc(-n2c(=O)[nH]c3c(C(N)=O)nc(-c4ccccc4)nc32)c1	-8%
COc1cccc(NC(=O)CSc2nnc(-c3cccs3)n2N)c1	-1%
Cc1ccc(S(=O)(=O)c2[nH]c(-c3ccccc3)nc2SC(=O)c2ccccc2)cc1	9%
CN(C)S(=O)(=O)NC1CC(=O)N(c2ccc(Cl)cc2)C1 (stereo not drawn)	-7%
CCc1ccccc1NS(=O)(=O)c1c[nH]c(=O)[nH]c1=O	30%
Cc1c(C(=O)O)nnn1-c1ccccc1	7%
Cn1c(/C(C#N)=C/c2ccc(O)cc2)nc2ccccc21	8%
CC1CN(C(c2ccco2)c2sc3ncnn3c2O)CC(C)O1 (stereo not drawn)	2%
COc1ccc(-n2c(SCC(=O)Nc3ccccc3)nc3c([nH]c4ccccc43)c2=O)cc1	13%
O=C(Nc1ccc(F)cc1)Nc1nc(C(=O)N2CCN(c3ccc(F)cc3)CC2)cs1	7.1µg/mL*
CC(=O)Nc1ccc2nc(NC(=O)CN3C(=O)c4ccccc4C3=O)sc2c1	7%
CC(C)N1CCc2c(sc(NC(=O)Cc3cccc4ccccc34)c2C(N)=O)C1	6%
Cc1ccc(-n2c(=O)[nH]c3c(C(N)=O)nc(-c4ccc(Cl)cc4Cl)nc32)cc1C	-7%
CCc1cccc(C)c1NC(=O)/C(C#N)=C/c1ccccc1	-5%
CC(C)Cn1c(NCCc2ccccc2)nc2c1c(=O)[nH]c(=O)n2C	2%
Cc1cc(C)c(NC(=O)CSc2nncn2-n2cccc2)c(C)c1	-7%
O=c1oc2cc(OCC(O)Cn3ccnc3)ccc2c2c1CCC2 (stereo not drawn)	3%
COc1ccc(-c2nnc3ccc(SCC(=O)Nc4cccc(F)c4)nn23)cc1	-1%
CCOc1ccc(NC(=O)c2oc3ccccc3c2NC(=O)c2cccc(Br)c2)cc1	31%
COc1cc(C(=O)Nc2cc3c4c(c2)C(C)C(=O)N4CCC3)cc(OC)c1OC (stereo not drawn)	-7%
Cc1c(O)ccc2c(=O)c(-c3ccccn3)c(CCC(=O)O)oc12	8%
CCOC(=O)c1c(NC(=O)c2ccc(C)cc2)sc2c1CCC2	0%
CC1=C(C(=O)Nc2ccc(Cl)cc2)C(c2cccc(F)c2)n2nnnc2N1 (stereo not drawn)	4%
Fc1ccc(-n2ncc3c(N4CCN(C(c5ccccc5)c5ccccc5)CC4)ncnc32)cc1	-9%
O=C(Nc1ccc(Br)cc1F)NC1CC(=O)N(c2ccc3c(c2)OCCO3)C1 (stereo not drawn)	10%
Cn1c(=O)[nH]c(=O)c2c1nc(N1CCN(c3ccccc3)CC1)n2CCSc1nnnn1-c1ccccc1	7%
CCc1ccc(NC(=O)CSc2ncnc3c2oc2ccccc23)cc1	7%
O=C(O)CSc1nnc(-c2ccc3c(c2)OCO3)n1-c1ccccc1	-44%
CC(=O)c1ccc(NC(=NS(=O)(=O)c2ccc(C)cc2)c2ccc(Cl)cc2)cc1	1%
O=C(CCc1ccccc1)Nc1nnc(-c2ccccn2)o1	99%
COc1ccc2oc(=O)c(C(=O)OCC(=O)c3ccc(F)cc3)cc2c1	2%
CCOc1ccc(CC(=O)NCCc2cc3c(C)ccc(C)c3[nH]c2=O)cc1	-11%
COc1ccc(OC)c(NC(=O)c2oc3ccccc3c2NC(=O)C2CCCC2)c1	-7%
Next structures follow:
SMILES	Mtb H37Rv
CCOc1ccc(C(=O)NCCc2cc3ccc(C)cc3[nH]c2=O)cc1OCC	-2%
CCOC(=O)c1cc(NC(=O)Nc2ccc(Br)cc2)c(C)nc1C	81%
CC(C)c1ccc(-c2csc(NC(=O)c3ccc(S(=O)(=O)N4CCCCCC4)cc3)n2)cc1	2%
CCCC(=O)Nc1nnc(-c2ccc(Cl)s2)o1	27µg/mL*
CCOc1cc(C2CC(=O)NC(SCc3ccccc3)=C2C#N)ccc1O (stereo not drawn)	3%
COc1ccc(Cl)c2sc(N3CCN(C(=O)COc4ccccc4)CC3)nc12	-15%
O=C(c1cn(-c2ccccc2)nc1-c1cc2ccccc2oc1=O)n1nnc2ccccc21	-10%
Nc1nc(SCC(=O)NCc2ccccc2Cl)[nH]c(=O)c1NC(=O)c1ccc(F)cc1	-3%
NC(=O)c1nc(-c2ccccc2F)nc2c1[nH]c(=O)n2-c1ccccc1F	-17%
O=C(CSc1ccc([N+](=O)[O-])cc1[N+](=O)[O-])NC1CCS(=O)(=O)C1 (stereo not drawn)	-6%
COc1ccc(S(=O)(=O)NC2CC(=O)N(c3ccccc3)C2)cc1C (stereo not drawn)	1%
COc1cccc2sc(NC(=O)c3cccc(C(F)(F)F)c3)nc12	84%
Clc1ccc(Cn2nnc3c(SCc4cccnc4)ncnc32)cc1	13µg/mL*
O=C(O)CSc1nc2c(cnn2-c2ccc(Cl)cc2)c(=O)[nH]1	-9%
O=C(/C=C/c1ccc2c(c1)OCO2)Nc1ccc2c(c1)OCO2	-6%

Only part of the results is shown (hit frequency here may not be typical).
